GLA inh pH 4.5: qHTS Assay for Inhibitors of Human alpha-Galactosidase at pH 4.5 | Alpha-galactosidase A (Homo sapiens), P06280 | purified enzyme, 4-MU-alpha-Gal fluorescence, pH 4.5 | activity change, negative = inhibition, % at 105 µM | 230,000 tested, under 10 active | AID 1467, 2008; inconclusive = small, poorly fitted or top-dose-only inhibition, or a rising curve; inactive = flat fitted curve, though single readings scatter; no compound was filed as active;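 note: 0% = full activity with enzyme and -100% = basal without enzyme; dose as in the result columns while the protocol names 77 µM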
Target sequence (P06280 whole entry, looked up): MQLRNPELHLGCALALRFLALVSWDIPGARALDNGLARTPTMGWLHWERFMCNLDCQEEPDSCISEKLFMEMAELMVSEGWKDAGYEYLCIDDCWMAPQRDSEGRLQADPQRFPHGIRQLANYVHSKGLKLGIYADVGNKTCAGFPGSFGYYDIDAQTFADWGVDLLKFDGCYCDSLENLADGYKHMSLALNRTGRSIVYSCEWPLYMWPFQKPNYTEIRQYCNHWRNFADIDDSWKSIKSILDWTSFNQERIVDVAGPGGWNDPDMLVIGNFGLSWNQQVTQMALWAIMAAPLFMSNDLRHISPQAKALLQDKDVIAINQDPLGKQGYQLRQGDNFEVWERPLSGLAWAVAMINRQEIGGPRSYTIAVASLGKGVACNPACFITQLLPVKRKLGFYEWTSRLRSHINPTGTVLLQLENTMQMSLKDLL
Rango complex inh: qHTS Assay for Inhibitors of Rango (Ran-regulated importin-beta cargo) - Importin beta complex formation; Importin subunit beta-1 (Homo sapiens), Q14974; Rango CFP/YFP FRET sensor + importin beta, 45 min; Potency, µM (top dose mostly 92.2 µM), for the others: top-dose inhibition of complex formation; 340,000 tested, 0.031% active; active = rising FRET ratio curve, often small or poorly fitted; inconclusive = mostly compound fluorescence or quenching in the first reads; inactive = flat curves in all reads;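 note: potency is the fitted concentration of half-maximal effect; 0% = DMSO wells and 100% = buffer wells lacking importin beta; nearly all actives have a fitted effect of over 15% in size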
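FRET biosensor (snurportin 1 IBB flanked by EYFP and cerulean), 50 nM, with compound 5 min, then 0.125 microM importin beta in PBS, 1 mM DTT, 0.02% Tween-20, 0.1% BSA. CFP/YFP ratio read after 45 min at room temperature; pre-read flags interference.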
Rango release inh: qHTS Assay for Inhibitors of RanGTP induced Rango (Ran-regulated importin-beta cargo) - Importin beta complex dissociation | Biochemical FRET Rango-importin beta, RanGTP-induced dissociation | Potency, µM (doses to about 46.1 µM), for the others: at the top dose activity change, negative = inhibition | 340,000 tested, 0.071% active | AID 540253, 2011; active means falling FRET ratio curve, often poorly fitted, with flat reads before Ran was added; inconclusive means other falling curves, or compound fluorescence or quenching; inactive means flat or rising ratio curve;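 note: potency is the fitted concentration of half-maximal effect; % of control where 0% means no effect; nearly all actives have a fitted effect of over 45% in size; -100% = wells without RanGTP and RCC1; the record marks most hits as doubtful in a second field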
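Two FRET readings bracket the reaction: one 5 min after compound meets Rango–importin beta, another 45 min after RanGTP-RCC1 (0.6 uM Ran, 0.2 uM RCC1, 2 mM GTP) is added. Only the second defines inhibition.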
miR-21 reporter: qHTS Assay for Modulators of miRNAs and/orActivators of miR-21; 340,000 tested, under 10 active; Potency, µM (doses to about 38.3 µM), for the others: at the highest dose reporter change, positive = more light; HeLa miR-21 FLuc reporter, luciferase, 48 h; active = well fitted rising curve with a large enough effect; inconclusive = small, poorly fitted or top-dose-only effect; inactive = no such curve, though single readings can be large or run the other way;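 note: % of control where 0% means no effect; miR-21 action dims this reporter so a rising signal means less miR-21 action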
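Using DMEM plus 10% FBS, HeLa miR-21-FLuc cells are incubated with test compounds (final up to about 40uM) for 48 hours; firefly luciferase signal is then imaged following reagent-mediated lysis.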
* marks the source's active call; other numbers are inactive results; ? = inconclusive; / = no result given. A portion of the library, so the mix of outcomes need not match the whole.

The line under a structure holds: GLA inh pH 4.5 | Rango complex inh | Rango release inh | miR-21 reporter
> Cc1ccccc1NC(=O)/C(=C/c1ccccc1)c1ccccc1
  -2 | 1.8% | 3% | -7%
> Cc1ccc(NC(=O)C2CSC3(C)CCC(=O)N23)cc1S(=O)(=O)N1CCOCC1 (centres undefined)
  / | -0.8% | -20% | /
> Cc1cc(C)n(CC2CC(=O)N(c3ccc(Cl)c(Cl)c3)C2=O)n1 (centres undefined)
  1 | 0.2% | -6% | -7%
> CCc1ccc(NC(=O)COC(=O)CC2CCCC2)cc1
  / | 3.3% | 8% | /
> COc1ccc(CCNC(=O)CCCCC(=O)NCCc2ccc(OC)c(OC)c2)cc1OC
  / | 0.1% | 13% | /
> Cc1ccc(C)c(OCCC(=O)N2CCN(S(=O)(=O)c3cc(F)ccc3F)CC2)c1
  / | 4.5% | 14% | /
> CC(C)CCN1CCC(n2nccc2NC(=O)c2ccc3c(c2)OCO3)CC1
  / | -1.1% | 13% | 1%
> Cc1onc(-c2ccccc2)c1C(=O)Nc1cccnc1
  2 | -0.2% | 5% | 7%
> Cc1ccc(C)n1-c1nn(S(=O)(=O)c2cccc3cccnc23)c2cccc(F)c12
  2 | 4.0% | 4% | -11%
> Cc1cc2nc(-c3ccc(SCC(=O)Nc4ccc5c(c4)OCCO5)nc3)[nH]c2cc1C
  -1 | 6.6% | -4% | -20%
> COc1ccc(CCNC(=O)C2CCCN(S(=O)(=O)c3ccccc3)C2)cc1 (centres undefined)
  / | 1.0% | 22% | 6%
> CCOC(=O)c1ccc2c(c1)nc(SC/C(O)=C(\C#N)c1nc3ccccc3[nH]1)n2CC
  -5 | ? | ? | -14%
> Cc1cc(C)nc(-n2nc(C)cc2NC(=O)CN2CCc3ccccc3C2)n1
  3 | -5.9% | 2% | -4%
> Cc1ccc(N2CC(C(=O)Nc3nccs3)CC2=O)cc1 (centres undefined)
  -5 | 5.0% | -19% | 0%
> CCOc1ccc(/C(O)=C2/C(=O)C(=O)N(c3ncccn3)C2c2ccccc2)cc1 (centres undefined)
  4 | 3.2% | -11% | -25%
> CCCN1C(=O)/C(=N\OCC(=O)NCC(F)(F)F)c2ccccc21
  5 | -0.6% | 10% | -2%
> C#CCOCCOCCOCCNc1nc(N2CCN(C(=O)[C@H](Cc3ccc(O)cc3)n3cc([C@@H](N)CC(C)C)nn3)CC2)nc(N2CCN(C(=O)[C@H](Cc3cc4ccccc4[nH]3)n3cc([C@@H](N)CC(C)C)nn3)CC2)n1
  -8 | ? | -11% | 6%
> Oc1ccc(Nc2nc(-c3ccccc3F)nc3ccccc23)cc1
  / | 0.7% | -6% | 23%
> COCCNC(=O)c1cccc(OC2CCN(Cc3ccc(C(=O)OC)cc3)CC2)c1
  / | 0.6% | 0% | 7%
> COc1ccc(C2SCC(C(=O)O)N2C(C)=O)cc1 (centres undefined)
  5 | 6.9% | -12% | 1%
> COc1ccc(N(C(=O)c2cccc(OC)c2OC)C2C=CS(=O)(=O)C2)cc1 (centres undefined)
  6 | 2.1% | 0% | -3%
> CCC(CO)Oc1cc(NCc2cccnc2)c2ncn(C(C)C)c2c1 (centres undefined)
  / | ? | ? | /
> O=C(Cc1ccccc1)c1nc2ccccc2s1
  3 | 8.8% | -10% | -59%
> CCc1ccc(C(=O)OCC(=O)NC2CCCC2)cc1
  / | 0.3% | 1% | 3%
> COc1cccc(NC(=O)C(C)Sc2nnc(C3CC3)n2C2CC2)c1 (centres undefined)
  / | 0.0% | -19% | /
> CSc1cc(-c2ccccc2)n(Cc2c(Cl)cccc2Cl)c(=O)c1C#N
  -3 | -1.1% | 0% | -1%
> CCc1ccccc1NC(=O)CN1CCN(C(=O)CNC(=O)c2ccc(N3CCCC3=O)cc2)CC1
  / | 3.1% | 6% | /
> COc1ccc(OC)c(NC(=O)c2cc3c(=O)n4ccccc4nc3n2C)c1
  11 | ? | -18% | -1%
> CC1CCN(C(=O)CSc2nc(=O)n3ccccc3n2)CC1
  / | -5.7% | 21% | /
> Cc1ccc(-c2cc(C(F)F)nc(N3CCC(C)CC3)n2)cc1
  7 | -0.3% | 1% | 0%
> CCCS(=O)(=O)NCc1cn2cccc(C)c2n1
  1 | -1.0% | -19% | -4%
> O=C(NCCCl)Nc1ccc(Cl)c([N+](=O)[O-])c1
  1 | 2.8% | -14% | -1%
> O=[N+]([O-])c1cc(C(F)(F)F)ccc1NN=C1CCCC1
  -4 | 0.5% | 0% | -1%
> O=C(/C=C/c1ccc(F)cc1)NC(=S)N1CCN(c2ccccn2)CC1
  -15 | -0.3% | -2% | -63%
> COc1cc2sc3ccc(-c4ccc(N(C)C)nc4)cc3c(=O)c2cc1OC
  / | -1.0% | 12% | /
> COc1ccc(S(=O)(=O)NCC2CCCN(C(=O)CSC)C2)cc1 (centres undefined)
  / | -1.0% | -15% | -2%
> O=C(CSc1nnc(COc2ccc3c(c2)CCCC3)o1)Nc1ccc(F)cc1
  11 | -4.7% | 0% | 0%
> COC(=O)c1ccc2nc(C)cc(Nc3ccc(N(C)C)cc3)c2c1
  -18 | 1.7% | -6% | 11%
> COCCC(=O)N1CCC(Oc2ccc(C(=O)N(C)C3CCCCC3)cc2)CC1
  / | 1.3% | 2% | -13%
> O=C(O)c1cccc(-c2ccc(/C=N/Nc3ccc([N+](=O)[O-])cc3)o2)c1
  -9 | ? | ? | -12%
> C=C(C)CSc1nc2nc(C)c(Br)cc2[nH]1
  7 | / | / | -58%
> CCN(CC)S(=O)(=O)c1cccc(C(=O)Nc2ccccc2)c1
  8 | 0.5% | 6% | -2%
> Cc1sc2ncnc(N3CCN(CCOc4ccc(Cl)cc4)CC3)c2c1C
  -7 | 4.6% | 16% | 19%
> CCCCN1CC(COCc2ccccc2)OCCS1(=O)=O (centres undefined)
  / | -0.2% | -9% | /
> CCOC(=O)c1c(/N=C/c2ccccc2O)sc2c1CCC2
  0 | 4.7% | -8% | 0%
> O=C(Nc1ccc(S(=O)(=O)Nc2nccs2)cc1)C1=NN(c2ccccc2)C(=O)CC1
  -1 | ? | ? | -1%
> C=CC(=O)Nc1ccc(Nc2ccnc(Nc3ccc(N4CCN(C)CC4)cc3)n2)cc1
  / | 13% | -5% | /
> N=C(N)N=Nc1c(O)[nH]c2ccc(Br)cc12
  -19 | ? | 31% | -16%
> COc1ccc(C(=O)C2CCCCC2=O)cc1 (centres undefined)
  5 | -0.6% | -4% | -1%
> CCCc1cc(=O)[nH]c(SCC(=O)N2CC3(C)CC2CC(C)(C)C3)n1 (centres undefined)
  / | -1.5% | -1% | /
> O=C(C[C@H]1C/C=C\CCCC(=O)OC[C@H]2CCCN2C1=O)NCCO
  / | -1.0% | 7% | /
> COc1cccc(CN2CC(C(=O)NCCN3CCOCC3)CCC2=O)c1 (centres undefined)
  / | 2.5% | -22% | -1%
> Cc1cc(C)c2c(C)[nH]nc2n1
  -2 | ? | 18% | -1%
> CCOC(=O)c1c(NC(=S)Nc2cccc(C)c2)sc2c1CC(C)(C)SC2
  8 | -0.1% | -8% | 1%
> Cc1onc(-c2ccccc2Cl)c1C(=O)Oc1cc(N)n(S(=O)(=O)c2ccc(F)cc2)n1
  -4 | -1.7% | 12% | -5%
> COc1ccc(CCNc2cc(C)[nH]c(=O)c2)cc1OC
  / | -11% | -1% | -9%
> CCOc1ccc(CC(=O)N/N=C/c2cccnc2)cc1
  1 | -1.1% | -4% | 3%
> O=C(OCC(=O)N1CCc2ccccc21)c1cccnc1Cl
  -7 | 0.1% | -11% | -30%
> O=C1CN(C(=O)c2ccc(Br)o2)C(c2ccccc2)c2cc(Br)ccc2N1 (centres undefined)
  -5 | -0.1% | 1% | 9%
> CN(C)c1ccc(N2C(=NC(=O)c3ccccc3)SC3CS(=O)(=O)CC32)cc1 (centres undefined)
  / | 0.6% | 2% | -5%

Some of these compounds in order of SMILES length, largest number first:
The line under a structure holds: GLA inh pH 4.5 | Rango complex inh | Rango release inh | miR-21 reporter
> CCCc1cc(=O)[nH]c(SCC(=O)N2CC3(C)CC2CC(C)(C)C3)n1 (centres undefined)
  / | -1.5% | -1% | /
> COc1cccc(CN2CC(C(=O)NCCN3CCOCC3)CCC2=O)c1 (centres undefined)
  / | 2.5% | -22% | -1%
> COc1ccc(CCNc2cc(C)[nH]c(=O)c2)cc1OC
  / | -11% | -1% | -9%

(more compounds)
The line under a structure holds: GLA inh pH 4.5 | Rango complex inh | Rango release inh | miR-21 reporter
> Cc1ccc(NC(=O)c2ccc(CSc3nnc(-c4ccncc4)n3C)cc2)c(C)c1
  2 | -0.1% | 1% | -2%
> CCCN1CCc2c(sc(NC(=O)C3CCN(S(=O)(=O)c4cccs4)CC3)c2C(N)=O)C1
  / | ? | ? | /
> O=C(CCN=C1NS(=O)(=O)c2ccccc21)N1CCc2ccccc2C1
  -3 | -4.3% | -8% | -10%
> Cc1cc(NC(=O)/C=C\C(=O)O)c([N+](=O)[O-])cc1C
  -7 | 0.8% | 1% | -10%
> CCOc1ccc(N/C(N)=N/c2nc(C)cc(C)n2)cc1
  / | 0.1% | 41% | 14%
> COc1cc(OC)c(NC(=O)c2cncn2-c2ccc(F)cc2)cc1Cl
  / | -1.0% | 27% | -23%
> Cc1ccc(-c2ccc(=O)n(CC(=O)NCCN3CCCCC3C)n2)cc1 (centres undefined)
  -24 | -3.4% | 8% | -1%
> O=C(NCc1cccnc1)C1CCN(S(=O)(=O)c2cc([N+](=O)[O-])ccc2Cl)CC1
  / | 7.9% | 26% | /
> Cc1cnc(C(=O)OCC(=O)N=c2sccn2Cc2ccccc2Cl)cn1
  / | -2.7% | 26% | -7%
> CN1C(=O)/C(=C/c2ccc(O)c([N+](=O)[O-])c2)N(C)C1=S
  7 | ? | -30% | -2%
> CC(=O)Oc1ccc(C(=O)[C@H]2[C@H]3C(=O)N(c4ccccc4)C(=O)[C@H]3[C@@H]3C=CC=NN32)cc1
  4 | -0.9% | -13% | -25%
> C#CCNC(=O)C1=C[C@H](c2ccc(Br)cc2)C[C@H](OCCCCO)O1
  4 | -1.4% | 17% | -20%
> O=C(OCCCOC(=O)c1ccc(Br)o1)c1ccc(Br)o1
  / | 0.2% | 7% | /
> Cc1cccc(C(=O)N=c2sccn2C)c1[N+](=O)[O-]
  / | 3.5% | 3% | -65%
> NC(=O)C1CCN(C(=O)c2ccc(Oc3cc(Cl)cc(Cl)c3)o2)CC1
  -10 | 0.0% | 24% | -9%
> COc1ccccc1OCCNC(=O)Cc1ccc(Cl)c(Cl)c1
  2 | -0.1% | 26% | -1%
> CCCCCCC(C)NC(=S)Nc1cc(S(=O)(=O)N(C)C)ccc1C (centres undefined)
  -10 | ? | -4% | 20%
> Cc1cc2c(cc1S(=O)(=O)NCc1ccccc1)n(C)c(=O)c(=O)n2C
  / | 1.8% | 1% | 7%
> C[C@@]12C(=O)Nc3cc(Cl)ccc3C(=O)N1[C@H]1c3ccccc3OC[C@@H]1[C@@H]2c1ccccc1
  / | 3.2% | -4% | /
> CCCOc1ccc(NC(=O)C2CC(=O)N(C)C(=Nc3cccc(OC)c3)S2)cc1 (centres undefined)
  3 | -3.4% | -2% | 2%
> COc1ccc(C(=O)NC2CC2)cc1OC1CCN(Cc2ccccc2)CC1
  / | -2.1% | 3% | -3%
> CS(=O)(=O)N(Cc1ccc(Cl)cc1)c1ccc(C(=O)N2CCN(c3ccccc3)CC2)cc1
  -13 | 6.1% | -11% | 13%
> Cc1ccccc1C(=O)N1CCC(C(=O)Nc2nccs2)CC1
  -7 | 4.5% | 7% | 1%
> C=CCn1c(SCC(=O)c2ccc(O)c(O)c2)nnc1-c1cccnc1
  -9 | -1.4% | -9% | -10%
> COc1ccc(-c2c(NC(=O)c3ccco3)n(-c3ccc(C)cc3)nc(C)c2=O)cc1
  -6 | 1.7% | 5% | 2%
> Nn1c(SCc2ccc(Br)cc2)nnc1-c1ccccn1
  -1 | 1.4% | 6% | 3%
> CN(C)C(=O)COc1ccc2c(-c3ccccc3)cc(=O)oc2c1
  / | -0.9% | 10% | -8%
> O=c1[nH]c(CCl)nc2cc(-c3ccc(Cl)cc3)sc12
  -7 | 1.2% | 11% | 26%

Bioassay records as filed in PubChem BioAssay.
